AID504770: growth inhibition of E. coli YBA685, primary screen, V. cholerae RctB inhibitors | E. coli YBA685 rctB-dependent plasmid, OD600 growth, 3 h; stronger effect = lower value | z-score (concentration not given with the values) | 130,000 tested, 0.27% active | AID 504770, 2011;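 active = z-score under -2 on both plates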;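 note: wells of about 30 µL received 100 nL stock; score is relative to mean and SD of the test wells; the first replicate is given; strong numbers were not always called active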
Ba CapD inh: Bacillus anthracis CapD inhibitors, primary screen, biochemical, fluorescence intensity; CapD gamma-glutamyltranspeptidase (Bacillus anthracis Ames Ancestor); purified CapD enzyme, fluorescence intensity read-out; stronger effect = lower value; some hits fall short of the stated cut; z-score (concentration not given with the values); 140,000 tested, 0.23% active;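 active = z-score under -4 in either of two replicates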;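 note: stock transfer was 100 nL into about 40 µL; score is relative to mean and spread of the plate; one replicate is shown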
* hit, by the source's call.

Results for CCOC(=O)CSc1nc2cc(C(=O)Nc3ccc(OC)c(OC)c3)ccc2c(=O)n1-c1ccccc1 ?
Ba CapD inh: 0.75

What do the screens show for `CS(=O)(=O)c1ccc(C(=O)Nc2ccc(N3CCOCC3)cc2)c(Cl)c1`?
Ba CapD inh: -0.87

How did N#Cc1c2n(c3c(=O)n(Cc4ccc(Cl)cc4)cnc13)CCCC2 do in these assays?
Ba CapD inh: -0.345

Results for O=c1[nH]cccc1Br ?
AID504770: -0.1

What do the screens show for `CC12COC3(C(=O)N4CCCCC4)CC1CCC32C` (stereo not drawn)?
AID504770: -0.15; Ba CapD inh: 0.66

What do the screens show for `Cc1cc(NC(=O)CCn2c(=O)sc3ccccc32)no1`?
AID504770: -0.7; Ba CapD inh: 0.91

What do the screens show for `O=C(NC1CC1)c1cc(=O)[nH]c2ccc(Br)cc12`?
AID504770: -0.05

How did CC(C)COC(=O)c1ccc2c(c1)C1C=CCC1C(c1ccc(Cl)cc1)N2 (stereo not drawn) do in these assays?
AID504770: 0.15; Ba CapD inh: 9.53

How did COc1ccc(-c2c(C(F)(F)F)oc3cc(OCC(=O)OC(C)C)ccc3c2=O)cc1OC do in these assays?
Ba CapD inh: 0.54

What do the screens show for `O=S(=O)(NCc1nc2ccccc2[nH]1)c1cc(Br)ccc1Br`?
Ba CapD inh: 0.505

How did COC(=O)C1=C(N)OC2=C(C(=O)CC(C)(C)C2)C1c1ccccc1F (stereo not drawn) do in these assays?
Ba CapD inh: -0.19

What do the screens show for `Cc1c(C(=O)N2CCN(c3ccc(F)cc3)CC2)sc2ncnc(N3CCOCC3)c12`?
Ba CapD inh: -0.615

Results for O=C(c1cc2ccccc2o1)N1CCCc2ccccc21 ?
AID504770: -0.85; Ba CapD inh: -1.23

What do the screens show for `O/N=C(\c1ccccc1)c1cc2ccccc2o1`?
AID504770: -1.1; Ba CapD inh: -0.155

What do the screens show for `CN(C)CCC(=O)c1ccc(S(C)(=O)=O)cc1`?
Ba CapD inh: -0.48

How did O=C(Cn1c(=O)oc2ccccc21)NCc1ccco1 do in these assays?
AID504770: -1.05; Ba CapD inh: 72.4

How did COc1ccc(-c2cc(C3CC3)nc(SCC(=O)O)c2C#N)cc1 do in these assays?
AID504770: -0.1; Ba CapD inh: 3.93

How did CC(C)C(NC(=O)c1ccccc1)C(=O)Nc1nc2ccc(Cl)cc2s1 (stereo not drawn) do in these assays?
AID504770: 0.15; Ba CapD inh: -0.58

What do the screens show for `O=C(COc1cccc(-n2cnnn2)c1)N1CCOCC1`?
AID504770: -0.45

What do the screens show for `O=C(CSc1nc(=O)n(CCN2CCOCC2)c2c1CCCC2)Nc1cccc(C(F)(F)F)c1`?
AID504770: 0.1

Results for Cc1cc(OCC(O)CNC(C)(C)C)ccc1Cl (stereo not drawn) ?
AID504770: -0.05; Ba CapD inh: 0.035

How did COC(=O)C12CC3CC(CC(O)(C3)C1)C2 do in these assays?
Ba CapD inh: 0.1

What do the screens show for `O=C1CCCc2c1cc(C(=O)N1CCOCC1)c(=O)n2-c1ccccc1`?
AID504770: -0.35

What do the screens show for `COC(=O)CC1COc2ccccc2N1C(=O)c1cccc(Cl)c1` (stereo not drawn)?
AID504770: 0.6; Ba CapD inh: 0.285

What do the screens show for `FC(F)(F)c1nc2ccccc2nc1Cl`?
AID504770: 2.05; Ba CapD inh: -0.36

Results for O=C(NCc1csc(-c2cccs2)n1)c1ccccc1 ?
AID504770: 0.5; Ba CapD inh: 31

What do the screens show for `Cc1cc(C(=O)CN2CCCC2c2cccs2)c(C)n1-c1c(C)n(C)n(-c2ccccc2)c1=O` (stereo not drawn)?
AID504770: -0.35

Results for O=C(COc1cccc2c1CCN(Cc1ccccc1)C2=O)NC1CCCCC1 ?
AID504770: -0.15; Ba CapD inh: -0.56

How did O=C(NCc1ccccn1)c1cc(-c2ccccc2O)no1 do in these assays?
AID504770: -0.35; Ba CapD inh: 0.305

What do the screens show for `COc1ccc(-c2sc(C(=O)O)c(C)c2C#N)cc1`?
AID504770: -0.75; Ba CapD inh: 56.5

How did COc1cccc(C(=O)OCC(=O)N2CCc3ccccc3C2)c1 do in these assays?
AID504770: -0.2; Ba CapD inh: -0.615

Results for N#Cc1nc(-c2cccc(O)c2)oc1N ?
AID504770: -0.85

Results for CSC1=N/C(=C\C=C\c2cccs2)C(=O)S1 ?
AID504770: 0.1; Ba CapD inh: 0.265

What do the screens show for `CC1=[N+](CCC#N)CC(C)(C)C1`?
AID504770: 1.4

What do the screens show for `Cc1cccc2sc(NC(=O)Cn3c(=O)c4ccccc4n(C)c3=O)nc12`?
Ba CapD inh: 1.07

What do the screens show for `O=C(O)CN1C(=O)Nc2ccc(Br)cc2C1c1ccccc1` (stereo not drawn)?
AID504770: 1.2; Ba CapD inh: 0.795

What do the screens show for `CCOc1ccc(NC(=O)CCCn2nc(CC)n3c(cc4occc43)c2=O)cc1`?
AID504770: 0; Ba CapD inh: 0.28

What do the screens show for `O=S(=O)(c1ccc2[nH]c3c(c2c1)CCCC3)N1CCCCC1`?
AID504770: -0.35; Ba CapD inh: 4.66

How did NC(=O)CC(NC(=O)OCc1ccccc1)C(=O)O (stereo not drawn) do in these assays?
Ba CapD inh: 0.18

How did COCc1cc(C)nc(SCC(=O)NC23CC4CC(CC(C4)C2)C3)c1C#N do in these assays?
AID504770: 0.5; Ba CapD inh: 0.17

What do the screens show for `Cc1cc(C)cc(-n2nnnc2SCC(=O)Nc2cccc(NC(=O)c3ccco3)c2)c1`?
AID504770: 0.35

What do the screens show for `COC(CNC(=O)c1cc2c(=O)n(C)c3ccccc3c2n1C)OC`?
AID504770: 0.7; Ba CapD inh: -0.495

Results for CCNC(=S)N1CCN=C1Nc1nc(C)cc(C)n1 ?
AID504770: -0.35; Ba CapD inh: -0.85

What do the screens show for `CCOC(=O)C1=C(N)OC(C)=C(C(=O)OC(C)C)C12C(=O)Nc1ccccc12` (stereo not drawn)?
Ba CapD inh: 0.155

What do the screens show for `N#Cc1c(-c2cccs2)cc(-c2cccnc2)nc1N`?
AID504770: -0.35; Ba CapD inh: 87.6

Results for CCOC(=O)NC(=O)c1cn(Nc2ccccc2)c(=O)[nH]c1=O ?
AID504770: -0.4; Ba CapD inh: -0.035

Results for O=C(Nc1ccc(C(=O)N2CCCCC2)cc1)c1ccc(=O)[nH]c1 ?
AID504770: -0.45; Ba CapD inh: -0.095

What do the screens show for `COC(=O)C1C(=O)C(C(=O)/C=C/c2ccco2)C(=O)CC1(C)C` (stereo not drawn)?
AID504770: -0.6; Ba CapD inh: -1.37

The list goes on; the last six above are carried over.
Results for CCNC(=S)N1CCN=C1Nc1nc(C)cc(C)n1 ?
AID504770: -0.35; Ba CapD inh: -0.85

What do the screens show for `CCOC(=O)C1=C(N)OC(C)=C(C(=O)OC(C)C)C12C(=O)Nc1ccccc12` (stereo not drawn)?
Ba CapD inh: 0.155

What do the screens show for `N#Cc1c(-c2cccs2)cc(-c2cccnc2)nc1N`?
AID504770: -0.35; Ba CapD inh: 87.6

Results for CCOC(=O)NC(=O)c1cn(Nc2ccccc2)c(=O)[nH]c1=O ?
AID504770: -0.4; Ba CapD inh: -0.035

Results for O=C(Nc1ccc(C(=O)N2CCCCC2)cc1)c1ccc(=O)[nH]c1 ?
AID504770: -0.45; Ba CapD inh: -0.095

What do the screens show for `COC(=O)C1C(=O)C(C(=O)/C=C/c2ccco2)C(=O)CC1(C)C` (stereo not drawn)?
AID504770: -0.6; Ba CapD inh: -1.37

What do the screens show for `CC(SCc1ccccc1)C(=O)N1CC(=O)Nc2ccccc21` (stereo not drawn)?
AID504770: -0.6; Ba CapD inh: -0.245

What do the screens show for `O=C(NCc1ccco1)/C(=C/c1ccccc1)NC(=O)c1ccc(Br)cc1`?
Ba CapD inh: 0.14

Results for N#CC(c1ccc(Cl)cc1Cl)c1ncc(C(F)(F)F)cc1Cl (stereo not drawn) ?
Ba CapD inh: -0.85

How did Cc1ccc2cc(NC(=O)c3cccc4c3OC(C)(C)C4)ccc2n1 do in these assays?
AID504770: -0.7; Ba CapD inh: 1.31

How did CC1(C)CC(=O)C(C=NCC2CCCO2)=C(O)C1 (stereo not drawn) do in these assays?
AID504770: -0.1; Ba CapD inh: -0.2

What do the screens show for `COc1cccc(C2Oc3ccc(Cl)cc3C3CC(c4ccco4)=NN32)c1` (stereo not drawn)?
Ba CapD inh: -0.55

What do the screens show for `O=C1CCCc2cc(S(=O)(=O)N3CCCC(C(=O)NC4CCCC4)C3)ccc2N1` (stereo not drawn)?
AID504770: 0.45; Ba CapD inh: 0.785

How did NC(=O)c1ccc(NC(=O)COC(=O)c2ccc(-n3cnnn3)cc2)cc1 do in these assays?
AID504770: -0.85

How did CCCNc1ncccc1C(N)=O do in these assays?
AID504770: 1.2

How did Nc1ccccc1OCCN1CCOCC1 do in these assays?
AID504770: -0.9

What do the screens show for `CCCCNC(=O)c1cccc(NC2=NC3CS(=O)(=O)CC3S2)c1` (stereo not drawn)?
AID504770: -0.5; Ba CapD inh: -0.355

How did S=c1sc2ccccc2n1CSc1ccc(Cl)cc1 do in these assays?
AID504770: -0.95; Ba CapD inh: -1.63

What do the screens show for `CCOc1cc(-c2nn3c(-c4ccoc4C)nnc3s2)cc(OCC)c1OCC`?
AID504770: 0

Results for Cc1onc(-c2ccccc2)c1-c1ccnc(-c2ccc(Cl)cc2)n1 ?
AID504770: 0.05; Ba CapD inh: 0.81

What do the screens show for `Cc1cc(C(=O)NC(C)c2ccccc2)c(C)o1` (stereo not drawn)?
AID504770: -0.45

What do the screens show for `O=C1S/C(=C\C=C\c2ccco2)C(=O)N1CCCc1ccccc1`?
AID504770: 0.05; Ba CapD inh: -1.33

What do the screens show for `NNC(=O)c1ccc2nonc2c1`?
Ba CapD inh: -0.295

How did CCn1c(C)c(C)c2cc(C(=O)NCCN3CCN(C)CC3)ccc21 do in these assays?
AID504770: -0.5; Ba CapD inh: 3.41

Results for O=C(O)c1cccc(NNC(=O)c2ccc3c(c2)OCCO3)c1 ?
AID504770: 1.65

Results for O=C(CCN1C(=O)COc2ccccc21)NC1CCCCCC1 ?
AID504770: 0.65; Ba CapD inh: -0.065

Results for CC1SCC(NC(=O)Nc2ccc(Cl)cc2)CS1 (stereo not drawn) ?
AID504770: -0.95; Ba CapD inh: -0.455

Results for CCc1c(C)nc2cc(-c3ccc(OC)c(OC)c3)nn2c1NCC(C)(C)CN(C)C ?
AID504770: -0.55

Results for CCC1(COC(NC(=O)c2ccc(Cl)cc2Cl)(C(F)(F)F)C(F)(F)F)COC1 ?
AID504770: -3.5; Ba CapD inh: -0.545

How did COCC(=O)N(C)C1(c2nnnn2CCOC(=O)Nc2ccc(Cl)cc2)CCCC1 do in these assays?
AID504770: -1; Ba CapD inh: -0.09

Reprinted at random: two compounds from above
What do the screens show for `O=C1S/C(=C\C=C\c2ccco2)C(=O)N1CCCc1ccccc1`?
AID504770: 0.05; Ba CapD inh: -1.33

How did COCC(=O)N(C)C1(c2nnnn2CCOC(=O)Nc2ccc(Cl)cc2)CCCC1 do in these assays?
AID504770: -1; Ba CapD inh: -0.09

Continued.
How did COC(=O)c1ccc(Nc2nc(-c3ccc(Br)cc3)c(C)s2)cc1 do in these assays?
AID504770: 1.5; Ba CapD inh: 35.3

Results for CC(=O)n1cc(/C=N/NC(=O)c2ccc([N+](=O)[O-])o2)c2ccccc21 ?
Ba CapD inh: 1.02

What do the screens show for `O=C(CCCN1C(=O)/C(=C/c2ccc(Br)cc2)SC1=S)Nc1nccs1`?
Ba CapD inh: -0.12

How did CC(=O)N/C(=C/c1ccccc1Br)C(=O)NCc1ccc(C)cc1 do in these assays?
AID504770: -0.4; Ba CapD inh: -0.04

How did Cc1ccc(C)c(CSC2=NCCN2C(=O)c2ccc(S(=O)(=O)N3CCOCC3)cc2)c1 do in these assays?
AID504770: 1.05; Ba CapD inh: 4.77

How did S=c1cc(-c2ccccc2)oc2ccccc12 do in these assays?
AID504770: -0.35; Ba CapD inh: -0.93

How did Cc1c(C#N)c(NC(=O)CN2CCc3ccccc3C2)n(Cc2ccco2)c1C do in these assays?
AID504770: -0.45

What do the screens show for `CCN(CC)C(=O)C1CC(c2ccccc2OC)=NO1` (stereo not drawn)?
AID504770: -0.45; Ba CapD inh: 3.69

How did C=CCN1C(=O)/C(=C\c2cccs2)SC1=Nc1ccccc1 do in these assays?
AID504770: 2.35; Ba CapD inh: -2.7

Results for CC12C/C(=C\c3ccccc3)C(=O)C[C@@H]1CCC1C2CCC2(C)C1CC[C@]2(C)O (stereo partly drawn) ?
AID504770: -0.15; Ba CapD inh: 0.44

What do the screens show for `CCc1ccccc1NC(=O)CC(O)(C(=O)OC)C(F)(F)F` (stereo not drawn)?
AID504770: 0.4; Ba CapD inh: 0.22

Results for CCSCCOC(=O)C1=C(C)NC2=C(C(=O)CC(c3cccs3)C2)C1c1ccc(OC(C)=O)cc1 (stereo not drawn) ?
Ba CapD inh: 14.7

How did c1ccc(Sc2ncnc3sccc23)cc1 do in these assays?
AID504770: -0.25; Ba CapD inh: -0.18

How did Nc1c(C(=O)Nc2nccs2)sc2nc3c(c(-c4cccs4)c12)CCCCC3 do in these assays?
Ba CapD inh: -0.445

How did CCOC(=O)N1CCc2c(sc3c2c(=O)n(CCc2ccccc2)c(=O)n3C)C1 do in these assays?
AID504770: 1.1; Ba CapD inh: -0.485

Results for O=C(CC(c1ccccc1)c1ccccc1)c1nnc(-c2ccccc2)o1 ?
AID504770: -0.05

How did COc1ccc(OC)c(N=c2ssc3c2-c2cc(OC)ccc2NC3(C)C)c1 do in these assays?
Ba CapD inh: -1.09

What do the screens show for `COC(=O)c1c(C)[nH]c(C(=O)COn2nnc3ccc(S(=O)(=O)N(C)C)cc32)c1C`?
AID504770: 1.45

Results for CCS(=O)(=O)c1ccc2oc(SCC(=O)Nc3ccccc3C(F)(F)F)nc2c1 ?
AID504770: -0.25

What do the screens show for `CCCc1c(C(=O)Nc2cc(-c3ccccc3)nn2C)cnn1-c1ccccc1`?
AID504770: -0.6; Ba CapD inh: -1.01

What do the screens show for `CCN1C(=O)CC(C(=O)Nc2ccc(C(=O)O)cc2)SC1=Nc1ccc2c(c1)OCO2` (stereo not drawn)?
Ba CapD inh: 0.495

Some of the compounds tested (hit frequency here may not be typical).
